Compound activity as filed in PubChem BioAssay.
gsp ag = activates gsp, the McCune-Albright syndrome mutation; gsp mutant cells, cAMP HTRF, 30 min; control for the full effect not named in the record; Potency, µM (top dose mostly 76.9 µM), without a hit: top-dose activation (cAMP increase), usual class: activators; actives 0.13% (n = 340,000); AID 624287; active = well fitted activation curve with a large enough effect; inconclusive = small, poorly fitted or top-dose-only effect, or another doubt; inactive = no such curve, though single readings can be large or run the other way; cell line not stated here;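 further: phosphodiesterase inhibitor Ro 20-1724 added with compounds to block cAMP breakdown; potency means the concentration at half of the fitted maximal effect; nearly all actives have a fitted effect of over 60% in size; about a fifth of the inactives were tested at one dose only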
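Cells in DMEM/10% FBS with G418 were pretreated with compounds in DMSO plus […] (300 uM stock) for 30 min at 37C. cAMP was measured by HTRF (cAMP-d2 plus anti-cAMP antibody-K) after 30 min at room temperature.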
ClpP mod = qHTS Assay for Activators of ClpP; purified B. subtilis ClpP, FRET peptide cleavage, 20 min; ATP-dependent Clp protease proteolytic subunit (Bacillus subtilis (strain 168)), P80244; Potency, µM (highest dose often 57.5 µM), for the others: at the highest dose activity change, negative = active; AID 651965, 2013; actives 1.9% (n = 340,000); active = well fitted falling curve with a large enough effect; inconclusive = small, poorly fitted or top-dose-only effect; inactive = no such curve, though single readings can be large or run the other way; further: potency means the concentration at half of the fitted maximal effect; the source files actives as falling curves though it sought activators and does not explain the sign; nearly all actives have a fitted effect of over 65% in size; many hits overshoot -100%
Target sequence (P80244 whole entry, looked up): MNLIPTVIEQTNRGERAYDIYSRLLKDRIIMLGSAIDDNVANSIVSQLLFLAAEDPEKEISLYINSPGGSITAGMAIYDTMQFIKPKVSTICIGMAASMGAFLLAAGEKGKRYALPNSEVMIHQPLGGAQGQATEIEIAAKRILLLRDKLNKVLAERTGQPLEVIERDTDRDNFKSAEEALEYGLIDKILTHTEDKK
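ClpP 10 microg/mL final, pH 8 Tris/KCl buffer with BSA, glycerol, Tween-20; compound pinned in; FRET-FV substrate; RT 20 min; Ex320/Em430; ΔFRET vs ADEP 5.8 microM, DMSO, no enzyme.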
Menin-MLL FL inh = inhibitors of human menin-MLL interaction, wild-type MLL peptide; Fluorescence polarization, fluorescein-MLL peptide displacement from menin; FP activity change, % at 61.4 µM; 290,000 tested, under 10 active; AID 1766; inconclusive = falling polarisation curve, or a change in total fluorescence; inactive = total fluorescence flat and polarisation flat or rising; no compound was filed as active; the % refers to the polarisation; negative = inhibition;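 further: % of control where 0% means no effect; inhibitors lower the polarisation; unlabelled MLL peptide was the positive control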
TRPML1 agonist = activates the human TRPML1 channel | Q9GZU1 | TRPML1-expressing cells, Ca2+ dye fluorescence, FDSS; host cell line not named in the record; reference of the full effect not given here | activation, % (concentration not given with the values) | actives 0.12% (n = 410,000) | AID 624414; in the data active = activation above about 50%; inconclusive = about 30% to 50%; inactive = below about 30%; further: 0% is about no effect; the text of the record puts the active cut at 80%
Target sequence (Q9GZU1 whole entry, looked up): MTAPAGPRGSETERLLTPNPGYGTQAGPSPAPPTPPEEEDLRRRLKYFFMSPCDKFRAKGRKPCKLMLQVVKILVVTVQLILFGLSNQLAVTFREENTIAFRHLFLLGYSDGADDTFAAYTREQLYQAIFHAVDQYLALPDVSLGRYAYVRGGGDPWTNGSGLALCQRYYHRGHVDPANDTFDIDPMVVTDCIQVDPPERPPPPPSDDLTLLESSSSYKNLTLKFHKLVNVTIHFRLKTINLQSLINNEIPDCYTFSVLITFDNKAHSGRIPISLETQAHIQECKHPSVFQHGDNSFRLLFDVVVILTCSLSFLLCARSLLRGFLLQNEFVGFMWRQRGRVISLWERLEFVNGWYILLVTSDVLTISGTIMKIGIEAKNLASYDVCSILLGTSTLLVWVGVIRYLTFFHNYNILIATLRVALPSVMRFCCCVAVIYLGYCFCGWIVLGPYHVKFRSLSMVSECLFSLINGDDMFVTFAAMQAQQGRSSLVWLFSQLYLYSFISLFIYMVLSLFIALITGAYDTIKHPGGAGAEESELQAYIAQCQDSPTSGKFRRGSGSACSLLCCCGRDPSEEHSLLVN
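Kinetic FDSS Ca2+ read in Tet-induced TRPML1-DL cells (ABD Ca8 dye plus quencher, 45-90 min RT loading): baseline, then compound, then 110 s agonist window; EC80 agonist 54-4 at 4uM final added afterwards for a 110 s antagonist window.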
TRPML1 inh = human mucolipin-1 channel inhibition; TRPML1-inducible cells, Ca2+ dye fluorescence, FDSS; hits give low values; inhibition of EC80 agonist-evoked calcium signal; activity change, negative = inhibition, % (test concentration not listed); actives 0.02% (n = 390,000); in the data active means activity change below about -50%; inconclusive means about -30% to -50%; inactive means above about -30%;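 further: stimulus is agonist 54-4 at its EC80 concentration; on the % scale 0 is the no-effect control and ±100 the full control effect; compound concentration not given in the record; the text of the record puts the active cut at -80%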
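Calcium fluorescence in TRPML1-DL cells induced overnight with Tet: a 110 s read after compound pin addition, then a 110 s antagonist read after challenge with 54-4 at 4 uM final (EC80).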
gsp antagonist = gsp mutant antagonism | gsp-mutant cells, cAMP HTRF, 30 min; control for the full effect not named in the record | Potency, µM (top dose mostly 76.9 µM), for inactives: at the top dose activity change, negative = inhibition, usual class: inhibitors | actives 0.4% (n = 340,000); active = falling curve of any shape with a large fitted effect; inconclusive = falling curve, mostly with a smaller effect; inactive = flat or rising curve; cell line not stated here;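 further: intracellular cAMP measured with PDE inhibitor Ro 20-1724 present during compound exposure; potency means the concentration at half of the fitted maximal effect; on the % scale 0 is the no-effect control and ±100 the full control effect; nearly all actives have a fitted effect of over 65% in size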
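Cells, 2000/well, grown 16–24 h in DMEM 10% FBS with 0.5 mg/ml G418, then compounds plus […] (300 uM addition stock), 30 min at 37C. cAMP read by HTRF (cAMP-d2 and anti-cAMP antibody-K in lysis buffer) after 30 min RT.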
The depositor's hits bear a star; u = inconclusive; x = not tested or not shown; & = joins results of further samples; [ ] = another dose, or the depositor's remark.

Start of the data: the first four compounds (preview)
# | compound | gsp ag | ClpP mod | Menin-MLL FL inh | TRPML1 agonist | TRPML1 inh | gsp antagonist
1 | COc1ccccc1NS(=O)(=O)c1cccc(C(=O)N/N=C(\C)c2cccnc2)c1 | -3% | -0.3% | x | 1.5 | -7 | 5%
2 | COc1ccc(NC(=O)Cn2c(=O)n(CCc3ccccc3)c(=O)c3ccccc32)cc1 | x | 1.0% | x | 0.5 | -4 | x
3 | Cc1ccc(C)c(NC(=O)c2cnn(-c3cccc(F)c3)c2C2CCN(C(=O)OC(C)(C)C)CC2)c1 | x | -7.7% | x | 4.5 | -6 | x
4 | COc1cc(/C=C/C(=O)N2CCN(c3ccccn3)CC2)cc(OC)c1OC | 0% | -7.5% | x | 2.2 | 14 | -10%

This part in full, previewed entries included:
# | compound | gsp ag | ClpP mod | Menin-MLL FL inh | TRPML1 agonist | TRPML1 inh | gsp antagonist
1 | COc1ccccc1NS(=O)(=O)c1cccc(C(=O)N/N=C(\C)c2cccnc2)c1 | -3% | -0.3% | x | 1.5 | -7 | 5%
2 | COc1ccc(NC(=O)Cn2c(=O)n(CCc3ccccc3)c(=O)c3ccccc32)cc1 | x | 1.0% | x | 0.5 | -4 | x
3 | Cc1ccc(C)c(NC(=O)c2cnn(-c3cccc(F)c3)c2C2CCN(C(=O)OC(C)(C)C)CC2)c1 | x | -7.7% | x | 4.5 | -6 | x
4 | COc1cc(/C=C/C(=O)N2CCN(c3ccccn3)CC2)cc(OC)c1OC | 0% | -7.5% | x | 2.2 | 14 | -10%
5 | O=C(CSc1nnnn1-c1ccc(Cl)cc1)N1CCc2ccccc2C1 | -28% | 0.0% | 0.1 | 1.3 | 13 | -4%
6 | O=C(Cn1cc(COc2ccc(Br)cc2[N+](=O)[O-])nn1)c1ccc(O)cc1 | x | 0.0% | x | -0.4 | -13 | -6%
7 | CCOC(=O)c1c(CNc2ccncc2)n(C)c2cc(Br)c(O)cc12 | -19% | -2.3% | 0.5 | 0.4 | 7 | -1%
8 | O=C(NCCc1ccc(F)cc1)c1n[nH]c2ccccc12 | 19% | x | 4.8 | -0.8 | 8 | 1%
9 | Cc1ccccc1CN1CCC(CNC(=O)c2cc3ccc4cccnc4c3[nH]2)CC1 | x | -0.8% | x | 0.2 | 24 | x
10 | Cc1cc(NC(=O)COC(=O)C2CCN(S(=O)(=O)c3cccc(Cl)c3Cl)CC2)no1 | 2% | 0.9% | 6.3 | 0.1 | 3 | 3%
11 | c1ccc(CC2CCCNC2)cc1 (configuration not stated) | 3%[15.4 µM] | x | 0.2 | -0.6 | 4 | 18%
12 | O=C(C[n+]1cccc(Br)c1)c1ccccc1 | -55%[inhibitor] | -2.0%&0.4% | -5.0 | 1.0&-0.6 | 29 | 0%
13 | CC(=O)N1CCc2c(sc3c2c(=O)n(Cc2ccccc2)c(=O)n3CC(=O)Nc2ccc(C)c(F)c2)C1 | x | -0.1% | x | -0.6 | 6 | x
14 | COc1cc(C=O)ccc1OCCOCCOc1ccc(Cl)cc1Cl | 6% | -4.5% | x | 1.8 | 9 | u
15 | COC(=O)c1c(N)sc(C(C)=O)c1C | u | -4.9% | -0.1 | -1.0 | 1 | 3%
16 | CC(=O)N1CCN(C(=S)NC(=O)c2ccc(F)cc2)CC1 | -2%[15.4 µM] | -1.3% | x | 0.5 | 1 | 5%
17 | CCCCC(=O)NNC(=O)CC(=O)Nc1ccccc1C(=O)O | -32%[inhibitor] | -8.9% | 3.5 | x | x | 11%
18 | CC(C)C(=O)NCC(c1cccs1)S(=O)(=O)c1ccc(F)cc1 (configuration not stated) | -8% | 0.7% | x | -0.3 | 0 | 8%
19 | c1ccc(-c2nc(C3CCCCC3)c3sccc3n2)cc1 | u | 0.7% | x | 1.2 | 1 | 10%
20 | Cc1ccc(S(=O)(=O)/N=C(\CSC(N)=O)Nc2ccccc2)cc1 | -14% | 0.3% | 1.2 | 0.1 | 37 | -7%
21 | O=C(O)c1c2c(nc3ccccc13)CCCCC2 | 2% | -0.8% | 2.7 | 0.8 | 9 | 2%
22 | C/C(CC(=O)NCc1ccc(Cl)cc1)=N\NC(=O)Cc1ccccc1 | -8% | -1.0% | 0.8 | 1.5 | -3 | 14%
23 | COC(=O)c1sc(NC(=O)c2ccncc2)nc1C | 20%[15.4 µM] | 0.6% | 3.5 | -0.5 | -10 | 4%
24 | CC1(C)CC(CCNC(=O)CCl)(c2ccccc2)CCO1 (configuration not stated) | 1% | -3.7% | 1.2 | 1.7 | -9 | 15%
25 | Cc1nnc(SCC(=O)NCC(=O)Nc2ccc(F)c(F)c2F)n1N | 13% | x | x | -0.5 | 3 | 4%
26 | Oc1ccc(N=Nc2ccccc2)cc1 | 1% | 1.3% | 0.7 | 1.0 | -5 | -11%
27 | CCCCOc1c(Cl)cc(C(=O)N(C)CC(=O)Nc2ccc(N3CCOCC3)cc2)cc1OCC | 1% | 0.7% | x | 0.4 | 4 | -9%
28 | C/C(NCCN1CCOCC1)=C(\C#N)C(N)=O | 11% | 1.1% | 2.4 | -0.5 | 16 | 4%
29 | CN(CC(=O)Nc1c(Cl)cccc1Cl)C(=O)c1cccc(-n2cccc2)c1 | -8%[15.4 µM] | x | x | -0.4 | 5 | -5%
30 | Cc1ccc(-c2nc(N3CCN(c4ccccc4Cl)CC3)c3ccccc3n2)cc1 | x | 0.0% | x | -0.6 | 1 | x

Continued; it opens with the four that closed the last part.
# | compound | gsp ag | ClpP mod | Menin-MLL FL inh | TRPML1 agonist | TRPML1 inh | gsp antagonist
27 | CCCCOc1c(Cl)cc(C(=O)N(C)CC(=O)Nc2ccc(N3CCOCC3)cc2)cc1OCC | 1% | 0.7% | x | 0.4 | 4 | -9%
28 | C/C(NCCN1CCOCC1)=C(\C#N)C(N)=O | 11% | 1.1% | 2.4 | -0.5 | 16 | 4%
29 | CN(CC(=O)Nc1c(Cl)cccc1Cl)C(=O)c1cccc(-n2cccc2)c1 | -8%[15.4 µM] | x | x | -0.4 | 5 | -5%
30 | Cc1ccc(-c2nc(N3CCN(c4ccccc4Cl)CC3)c3ccccc3n2)cc1 | x | 0.0% | x | -0.6 | 1 | x
31 | c1cc2ccc3ccc(CN4CCOCC4)c4ccc(c1)c2c34 | -11% | -2.7% | -2.7 | -0.4 | 2 | 0%
32 | CCOC(=O)C1(CCCc2ccccc2)CCN(C(=O)CCn2cncn2)CC1 | 20%[15.4 µM] | x | -2.1 | 0.2 | 4 | x
33 | COc1ccccc1CNC(=O)C(=O)NCC(c1ccco1)S(=O)(=O)c1ccc(C)cc1 (configuration not stated) | x | -2.4% | x | 1.6 | -9 | x
34 | COc1ccc(C(CC(=O)Nc2ccccn2)N2Cc3ccccc3C2=O)cc1 (configuration not stated) | 2% | x | 4.1 | -0.1 | 4 | -2%
35 | FC(F)(F)Oc1ccccc1-c1nnc(-c2cccc(C(F)(F)F)c2)o1 | 6%[15.4 µM] | x | 1.7 | 0.9 | -6 | -3%
36 | c1cc2cc(-c3c(-c4ccc5c(c4)OCO5)noc3-c3ccsc3)ccc2[nH]1 | x | u | 1.8 | -0.6&1.9 | 4 | -17%
37 | Cc1ccc(C(=O)NNC(=O)OC(C)(C)C)c(Cl)c1 | u | -5.5% | 6.3 | -0.4 | 3 | 16%
38 | COc1cc(CC(=O)NCCc2ccc(S(N)(=O)=O)cc2)cc(OC)c1OC | -68%[inhibitor] | 0.6% | 1.5 | -0.3 | 9 | 2%
39 | COC(=O)c1ccc(/C=N/NC(=S)NC(C)C)cc1 | -2% | -13% | -1.2 | x | x | 2%
40 | CCOC(=O)CN(C)C(=O)C1CC(CO[Si](C)(C)C(C)(C)C)=CN1C(=O)OC(C)(C)C (configuration not stated) | x | x | 0.3 | 0.5 | 8 | x
41 | Fc1ccc2[nH]c3c(Cl)ncnc3c2c1 | 3% | 4.0% | -6.4 | 3.0 | 29 | -32%
42 | CCC1CCCCN1CCCNC(=O)C1CCCN(c2ncnc3c2nc2n3CCCCC2)C1 (configuration not stated) | 23% | 0.1% | 2.7 | -0.9 | 0 | 9%
43 | Cc1cnc([N+](=O)[O-])n1CCOC(=O)c1cccc(F)c1 | 11% | x | -1.0 | 0.4 | -9 | -3%
44 | COc1ccccc1C(=O)Nc1ccc(NC(=O)C2CCCCC2)nc1 | 1%[15.4 µM] | x | 0.4 | 0.7 | 0 | 6%
45 | CC(=O)Nc1ccc(SCC(=O)Nc2cc(C)on2)cc1 | -11%[15.4 µM] | x | -2.7 | -0.4 | 16 | 9%
46 | N#CCCn1nc(-c2ccccc2)cc1Nc1ccccc1NC(=O)c1cccs1 | -37% | 0.4% | 2.1 | 2.4 | 1 | -19%
47 | Cc1cc(=O)n2nc(N3CCC(C(=O)NCc4cccnc4)CC3)sc2n1 | 27% | -2.0% | 2.9 | 0.9 | -6 | -12%
48 | COc1ccc(Cl)cc1N1C(=O)C2CCCN2C1c1sccc1C (configuration not stated) | -34% | 0.1% | -1.2 | 0.9 | -2 | 6%
49 | COc1ccc2c(C)c(C(=O)O)oc2c1 | -25% | 25µM* | -1.1 | 4.6 | 30 | 8%
50 | CC(C)Oc1cccc(C(=O)C2CCCN(Cc3cnc(N4CCCC4)s3)C2)c1 (configuration not stated) | 2% | x | 4.2 | 3.3 | -16 | -9%
51 | O=C(NCCc1ccccc1)c1ccc(Cn2c(SCc3ccccc3)nc3cccnc32)cc1 | x | 4.2% | x | 0.9 | 3 | x
52 | Nn1c(SCc2ccccn2)nncc1=O | -23%[15.4 µM] | 35% | 0.9 | 0.2 | 32 | 3%
53 | O=S1(=O)CC2NC(=S)N(c3cccc(Br)c3)C2C1 (configuration not stated) | 9% | 0.4% | 1.4 | -0.1 | 20 | 6%
54 | CC(=O)c1cc(CCC(=O)NC2CCCCCC2)oc1C | 6% | x | -3.0 | -0.3 | 13 | 9%
55 | COc1ccc(CCNC(=O)c2c(C)nc3ccccn23)cc1OC | -7%[15.4 µM] | -1.2% | 6.8 | -0.4 | 2 | 3%
56 | COc1ccc(N2C(N)=NC(N)=NC2(C)C)cc1 | -46%[inhibitor] | 1.6% | 0.3 | 0.2 | 6 | 8%
57 | COc1cc2c(cc1NC(=O)CSc1nccn1C)oc1ccccc12 | 2% | -7.8% | 4.4 | -1.0 | 4 | 28µM*
58 | COC(=O)c1c(C)oc(C)c(C(=O)OC)c1=O | 5% | -2.1% | 0.2 | -0.2 | 2 | 6%
59 | Cc1[nH]c2ccc(C(=O)OC(C)C(=O)NCc3ccccc3)cc2c1C (configuration not stated) | 17%[15.4 µM] | -1.1% | x | 3.4 | 1 | -10%
60 | Cc1csc(=O)n1CC(=O)OCc1cccc2ccccc12 | -13% | 1.0% | -3.6 | -0.2 | -6 | -4%
61 | CCOc1ccc(/C=C2/Sc3ccc(C(=O)NCC4CCCO4)cc3N(C)C2=O)cc1OC (configuration not stated) | -43%[inhibitor] | -2.1% | 5.5 | 1.0 | 18 | 3%
